# LASV entry inh: qHTS for Inhibitors of binding or entry into cells for Lassa Virus | hit rate 1.2% among 300,000 | Lassa virus pseudotype entry inhibition, cell reporter; control for the full effect not named in the record | Potency, µM (series often up to 37.9 µM), for the others: at the highest dose activity change, negative = inhibition, usual class: inhibitors; active means well fitted inhibition curve with a large enough effect; inconclusive means small, poorly fitted or top-dose-only effect, or effect the other way; inactive means flat fitted curve, though single readings scatter; tested in HEK293 cells; also: % is scaled to controls: 0 for no effect and ±100 for the full control effect; nearly all actives have a fitted effect of over 50% in size; luciferase read-out
# Cruzain noTriton: qHTS Assay for Promiscuous and Specific Inhibitors of Cruzain (without detergent). Cruzipain (Trypanosoma cruzi), P25779. purified cruzain, Z-FR-AMC fluorescence, no detergent. Potency, µM, for inactives: max response, negative = inhibition, usual class: inhibitors. hit rate 2.3% among 200,000. AID 1476, 2009;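 also: plate controls were enzyme without inhibitor for no effect and buffer without enzyme for full effect; nearly all actives have a fitted effect of over 40% in size; top concentration of the series not given in the record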
# Target sequence (P25779 123-467 limits assumed): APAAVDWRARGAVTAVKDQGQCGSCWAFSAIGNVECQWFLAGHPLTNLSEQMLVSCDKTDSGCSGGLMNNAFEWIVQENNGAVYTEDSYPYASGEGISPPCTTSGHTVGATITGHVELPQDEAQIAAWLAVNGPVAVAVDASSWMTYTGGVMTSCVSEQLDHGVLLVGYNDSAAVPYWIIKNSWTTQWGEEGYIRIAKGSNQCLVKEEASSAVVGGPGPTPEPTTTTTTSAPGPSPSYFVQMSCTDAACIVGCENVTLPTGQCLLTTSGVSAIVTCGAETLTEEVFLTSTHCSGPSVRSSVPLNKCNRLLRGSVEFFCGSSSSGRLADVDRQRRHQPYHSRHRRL
#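 Purified cruzain at 1.5 nM, pre-incubated 15 min with compound at room temperature in 100 mM sodium acetate pH 5.5, 5 mM DTT, 0.00005% Triton X-100. Reaction started with 2 uM Z-FR-AMC; AMC fluorescence increase over 60 s gives rate.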
# 2A StopGo: High Throughput Screening for Foot and Mouth Disease Virus Antivirals. AID 1159524, 2015. hit rate 1.2% among 410,000. human cells with a luciferase reporter of 2A StopGo recoding; control for the full effect not named in the record. Potency, µM (highest dose often 57.9 µM), for inactives: top-dose signal change, negative = less light; active = well fitted falling curve with a large enough effect; inconclusive = small, poorly fitted or top-dose-only effect; inactive = no such curve, though single readings can be large or run the other way; tested in HEK293T cells; also: % is scaled to controls: 0 for no effect and ±100 for the full control effect; nearly all actives have a fitted effect of over 45% in size; luciferase light after 4 h
# SARS PLP yeast: qHTS of Yeast-based Assay for SARS-CoV PLP. S. cerevisiae expressing SARS-CoV PLpro, growth rescue; control for the full effect not named in the record. Potency, µM (titrated, usually from 32.9 µM), for the others: top-dose activity, positive = growth rescue. hit rate 0.19% among 330,000. AID 485353, 2010; active means well fitted rising curve with a large enough effect; inconclusive means small, poorly fitted or top-dose-only effect; inactive means no such curve, though single readings can be large or run the other way; also: 0% is about no effect; nearly all actives have a fitted effect of over 55% in size; growth read by luminescence after 48 h
# NS1 inh: qHTS Assay for Inhibitors of Influenza NS1 Protein Function. AID 2326, 2010. hit rate 0.4% among 270,000. S. cerevisiae slowed by influenza A NS1, growth recovery by OD600. Potency, µM (top dose mostly 46.1 µM), for inactives: at the highest dose activity, positive = more growth; active means well fitted rising curve with a large enough effect; inconclusive means small, poorly fitted or top-dose-only effect; inactive means no such curve, though single readings can be large or run the other way; also: nearly all actives have a fitted effect of over 50% in size
#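 Growth recovery, yeast-based: influenza A NS1 expressed in S. cerevisiae causes slow growth, and suppressors are detected by OD600. The parent strain without NS1 is used as positive control.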
# Cruzain inh Det: qHTS Assay for Promiscuous and Specific Inhibitors of Cruzain (with detergent); purified cruzain, Z-FR-AMC fluorescence, 0.01% Triton; Potency, µM, for inactives: max response, negative = inhibition, hits mostly inhibitors; hit rate 0.43% among 200,000;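 also: plate controls were neutral wells for no effect and buffer without enzyme for full effect; nearly all actives have a fitted effect of over 40% in size; top concentration of the series not given in the record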
#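 Cruzain (1.5 nM) preincubated 15 min at RT with compound in 100 mM sodium acetate pH 5.5, 5 mM DTT, 0.01% Triton X-100. Reaction started with 2 uM Z-FR-AMC; AMC fluorescence (ex 360/em 450 nm) change over 60 s gave rate.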
# RE007 growth inh: qHTS Assay for Inhibitors of the HIV-1 protein Vpr | S. pombe RE007 Vpr strain, BacTiter-Glo ATP luminescence, 24 h; control for the full effect not named in the record | Potency, µM (top dose mostly 92.2 µM), for the others: top-dose activity change, negative = less growth | hit rate 0.21% among 360,000; active = well fitted falling curve with a large enough effect; inconclusive = small, poorly fitted or top-dose-only effect; inactive = no such curve, though single readings can be large or run the other way;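 also: % is scaled to controls: 0 for no effect and ±100 for the full control effect; nearly all actives have a fitted effect of over 50% in size; the assay follows cell death caused by Vpr and the record does not say whether a fall means rescue or toxicity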
#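 Fission yeast strain RE007, carrying one chromosomally integrated HIV-1 vpr copy, was seeded at OD 0.01 in PMG+AL medium with 23 nL pinned compound. After 24 h at 30 °C and 99% humidity, viability was read by BacTiter-Glo luminescence.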
# MARV entry inh: qHTS for inhibitors of binding or entry into cells for Marburg Virus. Marburg virus pseudotyped entry inhibition, cell reporter; control for the full effect not named in the record; about a third of the inactives were read at about 46 µM. Potency, µM (doses to about 37.8 µM), without a hit: top-dose activity change, negative = inhibition, actives largely listed as inhibitors. hit rate 1.8% among 300,000. AID 540276, 2011; active = well fitted inhibition curve with a large enough effect; inconclusive = small, poorly fitted or top-dose-only effect, or effect the other way; inactive = flat fitted curve, though single readings scatter; tested in HEK293 cells; about a fifth of its hits are not listed in these tables; also: % is scaled to controls: 0 for no effect and ±100 for the full control effect; luciferase read-out
# Starred values were filed as active, the others as inactive; ? = inconclusive; · = no result given; & = joins results of further samples; [ ] = remark or other dose. Unless noted, calls follow the shape of the dose curve; as a rule, active = well fitted curve in the direction sought with a large enough effect; inconclusive = small, poorly fitted or top-dose-only effect, or another doubt; inactive = no such curve, though single readings can be large; an effect the other way counts as inactive or inconclusive. Potency is read from the fitted curve at half-maximal effect.
SMILES,LASV entry inh,Cruzain noTriton,2A StopGo,SARS PLP yeast,NS1 inh,Cruzain inh Det,RE007 growth inh,MARV entry inh
CC(=O)NCCNC(=O)CCCc1nnc2n(CCC(C)C)c(=O)c3sccc3n12,10%[46.1 µM],1%,-5%,·,·,0.6%,·,·
COc1ccc(NC(=S)N2CCC(c3nc4ccccc4[nH]3)CC2)c(OC)c1,?,4%,·,-2%,?,5.8%,3%,-6%
Cc1cccc(NC(=O)C(=O)NCC(c2cccnc2)N2CCN(Cc3ccccc3)CC2)c1 (configuration not stated),-28%[46.1 µM],1%,?,·,·,-3.0%,·,·
COc1cc(NC(=O)c2cc(CC(C)C)on2)c(OC)cc1Cl,·,2%,-4%,-8%,-40%,-8.6%,-9%,0%
Cc1ccc(C)n1-c1ccc(C(=O)NCc2ccncc2)cc1,-1%,·,-6%,1%,·,·,-9%,-6%
Cn1nnc2cc(NC(=O)Nc3cccc(C(F)(F)F)c3)ccc21,·,·,7%,14%,6%,·,-10%,·
C[C@@H](NC(=O)[C@@H]1Cc2ccccc2CN1)C(=O)NC1CCCCC1,8%[46.1 µM],·,-5%,-5%,-10%,·,1%,?
COc1ccc(NC(=S)N2C3CCC2CC(NC(=O)NC24CC5CC(CC(C5)C2)C4)C3)c(OC)c1 (configuration not stated),-1%,14%,·,-5%,29%,2.7%,11%,-3%
O=C1CC(=O)N(c2cccc(Cl)c2)C(=O)N1,1%,7%,·,6%,12%,1.9%,9%,-11%
Cc1c(O)nc(SCC(=O)Nc2ccc(Cl)cc2Cl)n(-c2ccc(F)cc2)c1=O,8%[46.1 µM],3%,-23%,·,·,-7.5%,·,-9%[46.1 µM]
Cc1ccc2ncccc2c1N,?,·,-1%,-1%,·,·,-2%,?
COc1cc(NC(=O)COC(=O)c2nc3nc(C)cc(C)n3n2)cc(OC)c1,14%,-2%,17%,-1%,-2%,0.4%,20%,0%
Cc1ccc(-n2c(-c3ccncc3)n[nH]c2=S)cc1C,0%[46.1 µM],·,4%,0%,12%,·,0%,-12%[46.1 µM]
COc1ccc(NC(=O)CCc2nc3cccnc3n2-c2ccccc2)cc1Cl,9%[46.1 µM],8%,-24%,·,·,-6.0%,·,?
COC(=O)C1=C(C)N(Cc2ccccc2)C(=S)N[C@H]1c1ccc(Br)cc1,·,·,-17%,-1%&6%,-11%,·,-5%,-36%[14.2 µM]
Cc1onc(-c2ccccc2)c1NC(=O)N(CCC(=O)O)Cc1ccccc1,5%[46.1 µM],·,-7%,0%,-1%,·,-11%,6%[46.1 µM]
CN(C)S(=O)(=O)c1cccc(NC(=O)CN2C(=O)NC(CCc3ccccc3)C2=O)c1 (configuration not stated),·,·,-1%,0%,-5%,·,4%,·
COc1ccccc1N1CCN(C2=CC(=O)CCC2)CC1,?,-4%,9%,4%,-8%,1.6%,-6%,5%
N/C(=N\N=C\c1cccs1)SC1CC(=O)N(c2cccc([N+](=O)[O-])c2)C1=O (configuration not stated),5%,·,0%,4%,·,·,-3%,?
O=C(Nc1ccc(C(=O)N2CCCCC2)cc1)Nc1cccc(Cl)c1,4%,·,0%,-5%,-5%,·,-4%,2%
CCOc1ccccc1NS(=O)(=O)c1ccc(OC)c(OC)c1,8%,-2%,-13%,2%,6%,-0.1%,-11%,-8%
COc1ccc(NCCc2ccccn2)cc1,·,·,65%[activator],?,-6%,·,-1%,·
CCN(C(=O)CCN1C(=O)S/C(=C\c2ccccc2)C1=O)C1CCS(=O)(=O)C1 (configuration not stated),6%[46.1 µM],·,3%,-3%,1%,·,-1%,-15%[46.1 µM]
CC(=O)c1cccc(NS(=O)(=O)c2ccc(-c3cnc(C4CC4)o3)cc2)c1,·,·,-15%,4%,-2%,·,5%,·
Cc1ccc(C)n1CCN1CCN(C(=O)c2ccc(Cl)cc2)CC1,12%[46.1 µM],·,-24%,0%,5%,·,0%,?

# (cont.)
SMILES,LASV entry inh,Cruzain noTriton,2A StopGo,SARS PLP yeast,NS1 inh,Cruzain inh Det,RE007 growth inh,MARV entry inh
CCOC(=O)Cc1nnc(NC(=O)COc2ccc(F)cc2)s1,1%,?,-11%,1%,-6%,7.9%,-5%,22%
CCn1c(-c2ccc([N+](=O)[O-])cc2)n[nH]c1=S,1%,1%,0%,4%,9%,1.6%,5%,-2%
CCOC(=O)CCSc1nc(C)c2cc(C)c(C)cc2n1,-13%,25%,24%,-11%,0%,-7.6%,-18%,10%
COC(=O)c1cc2sccc2n1CC(=O)Nc1cc(OC)cc(OC)c1,-5%,-17%,·,-16%,-2%,0.9%,-6%,-9%
CCOc1ccc(S(=O)(=O)N(C)CC(=O)NCc2ccco2)cc1,?,·,-4%,1%,?,·,-4%,28%[46.1 µM]
CCCCNC(=O)c1cc2c(=O)n3cccc(C)c3nc2n(Cc2ccccc2)c1=N,?,?,·,2%,4%,28µM*,-9%,?
CCOC(=O)NCCc1c(C)nc2c(c(C)nn2C(C)(C)C)c1C,?,8%,?,2%,-57%,-1.5%,-2%,?
O=C(CCn1c(=S)[nH]c2cc3c(cc2c1=O)OCO3)NCc1ccccc1Cl,·,·,13%,0%,-3%,·,6%,·
COC(=O)c1ccccc1NC(=O)c1ccc(-c2nc(CSc3ccc(C)cc3)c(C)o2)cc1,1%[46.1 µM],13%,18%,·,·,-5.0%,·,·
Cc1c(C(=O)NC(c2ccccn2)C(F)(F)F)oc2c(F)cccc12 (configuration not stated),·,·,-18%,3%,8%,·,8%,·
O=C(COC(=O)c1cccnc1Cl)Nc1ccc2c(c1)OCO2,-9%[46.1 µM],·,16%,-1%,·,·,-7%,1%[46.1 µM]
COc1cc(CCC(=O)OCC(=O)Nc2ccc(Br)cc2F)cc(OC)c1OC,?,·,0%,-2%,-10%,·,4%,6%[46.1 µM]
CC(C)Oc1cccc(C(=O)C2CCCN(S(=O)(=O)C(C)C)C2)c1 (configuration not stated),2%,·,0%,0%,-6%,·,9%,12%[46.1 µM]
O=C(c1cccc(Cl)c1)c1nn(-c2ccccc2)c(=O)cc1C(F)(F)F,11%,7%,?,-6%,-66%,-5.9%,6%,9%
COc1cccc2cc(C(=O)C3=C(O)C(=O)N(Cc4ccco4)C3c3cccnc3)oc12 (configuration not stated),-24%,-6%,2%,2%,1%,-1.9%,-6%,25%
COc1cccc(N(CC(=O)Nc2cccnc2)S(C)(=O)=O)c1,2%[46.1 µM],·,2%,0%,-10%,·,-29%,?
COc1ccc(C/C(C)=N/NC(=S)Nc2ccc(C(C)C)cc2)cc1,?,-9%,-9%,3%,19%,-11%,3%,?
CN(C)S(=O)(=O)c1ccc(NC(=O)c2ccccn2)cc1,?,-8%,24%,-1%,-4%,4.7%,3%,?
COc1ccc(CC(=O)NC(C)CCc2ccccc2)cc1OC (configuration not stated),-1%,·,?,-1%,1%,·,6%,?
O=C(NCc1ccc(Cl)cc1)C1CCCN(c2ncnc3c2nc2n3CCCCC2)C1 (configuration not stated),·,·,-24%,-2%,20%,·,-19%,·
CC(C)(C)NC(=O)CSc1nccn1Cc1ccccc1,-2%,-7%,·,2%,-1%,6.8%,-9%,8%
CC(=O)NNC(=O)CC(=O)Nc1nc(C23CC4CC(CC(C4)C2)C3)cs1,?,?,?,10%,14%,-5.7%,5%,16%
CCOCCCNC(=O)C1CCC(=O)N1CCc1ccccc1 (configuration not stated),18%,4%,-8%,5%,2%,3.6%,34%,7%
O=C(NCCC1=CCCCC1)c1ccc2c(c1)ncn2-c1cccc(Cl)c1,16%[46.1 µM],17%,21%,·,·,1.1%,·,·
O=C(NCC1CCCO1)C(=O)NCC(c1ccco1)N1CCN(c2ccc(F)cc2)CC1 (configuration not stated),-12%,15%,-24%,-3%,-14%,1.4%,9%,-12%

# Further records.
SMILES,LASV entry inh,Cruzain noTriton,2A StopGo,SARS PLP yeast,NS1 inh,Cruzain inh Det,RE007 growth inh,MARV entry inh
O=C(O)c1ccc(Nc2nc(-c3cc4ccccc4oc3=O)cs2)cc1O,-1%,·,39%[activator],1%,·,·,-1%,?
Cc1cccc(NC(=O)Cn2ccn(-c3ccc4c(c3)OCCO4)c(=O)c2=O)c1,-3%,·,0%,1%,·,·,-10%,-2%
CCCCn1c(-c2ccc(C)cc2)c(C)n2c3c(=O)n(C)c(=O)n(C)c3nc12,?,-5%,?,·,·,0.0%,·,·
Cc1cccc2c1-c1sc(C(=O)Nc3cccc([N+](=O)[O-])c3C)cc1CO2,?,-18%,?,21%,?,-13%,-11%,?
Cn1c(=O)n(C)c2cc(N3CCOCC3)c(NC(=O)c3c(F)cccc3F)cc21,4%[46.1 µM],6%,-18%,·,·,-5.4%,·,?
FC(F)(F)c1ccccc1NC(=S)N1CCCCCC1,8%[46.1 µM],·,4%,1%,-3%,·,-17%,9%[46.1 µM]
CCN(CC)c1ccc(C(=O)N/N=C(\C)c2ccc(OC)c(OC)c2)cc1,2%,-4%,-11%,0%,0%,-12%,6%,12%
CCNC(=O)c1ccc(-n2nc(C(F)(F)F)c3c2CCCC3)cc1,1%,21%,-28%,-2%,-13%,-2.0%,-6%,-2%
COc1ccc(CCNS(=O)(=O)c2cn(C)nc2C)cc1OC,28%,·,-6%,0%,16%,·,18%,18%
Cc1ccc(C)c(NC(=S)NNC(=O)c2csc(C(C)C)c2)c1,-12%,-8%,34%[activator],10µM*,-9%,-4.4%,2%,-11%
CCCCSc1nnc2n(-c3ccc(OC)cc3)c(=O)c3c4c(sc3n12)COC(C(C)C)C4 (configuration not stated),-4%[46.1 µM],13%,?,·,·,-1.3%,·,0%[46.1 µM]
CCNc1nc(OC)nc(Oc2ccc(=O)n(-c3ccccc3)n2)n1,18%,-1%,3%,?,3%,-1.4%,0%,0%&14%
Cc1nc2c(-c3ccccc3)c(C)nn2c(C)c1CCC(=O)NCc1ccccc1Cl,-19%[46.1 µM],-5%,-19%,·,·,0.6%,·,13%[46.1 µM]
Cc1ccc(SCCC(=O)Nc2cccnc2)cc1,0%[46.1 µM],·,-13%,-2%,-3%,·,13%,9%[46.1 µM]
COc1ccccc1/C=N/NC(=O)c1ccc(Cn2nc([N+](=O)[O-])cc2C)cc1,3%,-11%,-26%,10%,?,-6.1%,-12%,-3%

# Source: PubChem (National Center for Advancing Translational Sciences (NCATS))
